Source: PubChem (National Center for Advancing Translational Sciences (NCATS))
miR-21 FLuc: qHTS Assay for Modulators of miRNAs and/orActivators of miR-21; HeLa miR-21 FLuc reporter, luciferase, 48 h; Potency, µM (series often up to 38.3 µM), for the others: at the top dose reporter change, positive = more light; 340,000 tested, under 10 active; active = well fitted rising curve with a large enough effect; inconclusive = small, poorly fitted or top-dose-only effect; inactive = no such curve, though single readings can be large or run the other way;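 further: % of control where 0% means no effect; miR-21 action dims this reporter so a rising signal means less miR-21 action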
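Luminescence from a firefly luciferase reporter carrying a miR-21 binding site downstream, stably expressed under a CMV promoter in HeLa cells that make miR-21 endogenously, reports miRNA modulation after 48 h compound exposure up to approximately 40uM final.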
Rango-impB inh: qHTS Assay for Inhibitors of Rango (Ran-regulated importin-beta cargo) - Importin beta complex formation; Importin subunit beta-1 (Homo sapiens), Q14974; Potency, µM (highest dose often 92.2 µM), inactives show top-dose inhibition of complex formation; 340,000 compounds, 0.031% hits; Rango CFP/YFP FRET sensor + importin beta, 45 min; active = rising FRET ratio curve, often small or poorly fitted; inconclusive = mostly compound fluorescence or quenching in the first reads; inactive = flat curves in all reads;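 further: potency means the concentration at half of the fitted maximal effect; 0% = DMSO wells and 100% = buffer wells lacking importin beta; nearly all actives have a fitted effect of over 15% in size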
Target sequence (Q14974 whole entry, looked up): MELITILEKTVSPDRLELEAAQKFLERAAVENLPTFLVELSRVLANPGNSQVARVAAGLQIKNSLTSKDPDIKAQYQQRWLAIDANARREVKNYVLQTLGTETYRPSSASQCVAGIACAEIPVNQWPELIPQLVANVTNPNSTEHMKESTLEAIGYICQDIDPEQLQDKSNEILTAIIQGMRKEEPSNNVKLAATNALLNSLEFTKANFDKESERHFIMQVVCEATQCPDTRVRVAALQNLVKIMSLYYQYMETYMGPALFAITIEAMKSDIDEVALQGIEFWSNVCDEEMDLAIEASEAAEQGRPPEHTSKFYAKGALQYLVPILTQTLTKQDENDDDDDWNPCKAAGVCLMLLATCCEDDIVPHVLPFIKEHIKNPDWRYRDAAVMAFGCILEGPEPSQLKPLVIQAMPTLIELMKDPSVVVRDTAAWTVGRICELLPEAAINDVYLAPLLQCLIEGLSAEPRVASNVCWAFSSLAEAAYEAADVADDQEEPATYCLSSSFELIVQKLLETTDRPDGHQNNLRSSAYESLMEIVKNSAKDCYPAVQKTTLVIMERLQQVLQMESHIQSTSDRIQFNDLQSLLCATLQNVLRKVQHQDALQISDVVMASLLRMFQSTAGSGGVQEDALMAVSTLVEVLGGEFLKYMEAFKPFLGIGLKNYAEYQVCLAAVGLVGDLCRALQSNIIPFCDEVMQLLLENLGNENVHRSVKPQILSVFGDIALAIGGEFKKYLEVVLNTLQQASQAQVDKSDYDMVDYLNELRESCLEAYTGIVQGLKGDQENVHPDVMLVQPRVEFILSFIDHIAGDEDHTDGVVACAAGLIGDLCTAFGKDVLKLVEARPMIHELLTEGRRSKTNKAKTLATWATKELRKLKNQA
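FRET biosensor Rango (snurportin 1 IBB between N-terminal EYFP and C-terminal Cerulean), 50 nM in PBS/1 mM DTT/0.02% Tween-20/0.1% BSA, preincubated 5 min RT with compound; 0.125 microM importin beta added, 45 min RT, CFP/YFP FRET ratio read.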
GLA inh pH 4.5: qHTS Assay for Inhibitors of Human alpha-Galactosidase at pH 4.5. Alpha-galactosidase A (Homo sapiens), P06280. purified enzyme, 4-MU-alpha-Gal fluorescence, pH 4.5. activity change, negative = inhibition, % at 105 µM. 230,000 tested, under 10 active. AID 1467, 2008; inconclusive = small, poorly fitted or top-dose-only inhibition, or a rising curve; inactive = flat fitted curve, though single readings scatter; no compound was filed as active;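 further: 0% = full activity with enzyme and -100% = basal without enzyme; dose as in the result columns while the protocol names 77 µM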
Rango dissoc inh: qHTS Assay for Inhibitors of RanGTP induced Rango (Ran-regulated importin-beta cargo) - Importin beta complex dissociation; Snurportin-1 (Homo sapiens) + GTP-binding nuclear protein Ran (Homo sapiens) + Importin …; Biochemical FRET Rango-importin beta, RanGTP-induced dissociation; Potency, µM (highest dose often 46.1 µM), inactives show at the highest dose activity change, negative = inhibition; 340,000 compounds, 0.071% hits; active means falling FRET ratio curve, often poorly fitted, with flat reads before Ran was added; inconclusive means other falling curves, or compound fluorescence or quenching; inactive means flat or rising ratio curve;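 further: potency means the concentration at half of the fitted maximal effect; % of control where 0% means no effect; nearly all actives have a fitted effect of over 45% in size; -100% = wells without RanGTP and RCC1; the record marks most hits as doubtful in a second field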
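Quantitative HTS using a FRET biosensor: 0.1 uM Rango, 0.25 uM importin beta, 0.6 uM Ran, 2 mM GTP, 0.2 uM RCC1 final, PBS with DTT, Tween-20 and BSA. Post-read taken 45 min after Ran addition.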
Starred values were filed as active, the others as inactive; ? = inconclusive; / = no result given; & = joins results of further samples.

No. | SMILES | miR-21 FLuc | Rango-impB inh
1 | Cc1c(NC(=O)c2n[nH]c(=O)c3ccccc23)c(=O)n(-c2ccccc2)n1C | -2% | -3.7%
2 | CSc1cccc(NC(=O)Cn2cccc2)c1 | -2% | -7.0%
3 | CCCCOC(=O)c1ccc(NC(=O)COC(=O)C2CSC3(C)CCC(=O)N23)cc1 (centres undefined) | / | -1.0%
4 | COc1ccc(N2CCN(C(=O)COC(=O)c3oc4ccc(OC)cc4c3C)CC2)cc1 | / | 0.5%
5 | O=C(c1ccco1)N1CCN(c2c(-c3ccccc3)c3cc(Cl)ccc3[nH]c2=O)CC1 | 28% | 1.4%
6 | CC(C)CC(=O)NC(=S)Nc1ccc(CN2CCOCC2)cc1 | -11% | -2.8%
7 | COc1cc(CO)ccc1OCC(=O)Nc1cccc2ccccc12 | -2% | -0.2%
8 | O=C(c1ccc2ccccc2n1)N1CCN(c2ccccc2O)CC1 | -15% | 6.0%
9 | CC(C(=O)Nc1ccccc1Sc1ccccc1)N(c1ccccc1)S(C)(=O)=O (centres undefined) | 0% | 1.3%
10 | COc1ccc(C2CC(=O)Oc3c(C(CCN4CCCC(C)C4)c4ccc(N(C)C)cc4)c(OC)cc(OC)c32)cc1 (centres undefined) | 3% | 1.6%

No. | GLA inh pH 4.5 | Rango dissoc inh
1 | 11 | -15%
2 | -22 | 5%
3 | / | 0%
4 | / | -13%
5 | 2 | -11%
6 | -16 | 14%
7 | / | -5%
8 | 2 | 0%
9 | 3 | 32%
10 | -7 | -24%

(listing goes on)
No. | SMILES | miR-21 FLuc | Rango-impB inh
11 | Cc1ccc(C(=O)Nc2ccccc2N2CCN(C(=O)C(C)C)CC2)cc1C | -3% | -2.3%
12 | CCCOC(=O)/C=C/c1c(C)[nH]c(=O)[nH]c1=O | -11% | -0.7%
13 | Cc1[nH]c2ccccc2c1/C=N/NC(=O)CNC(=O)c1ccco1 | 1% | 1.3%
14 | Cc1ccc(-c2cnc(NC(=O)CCC(=O)N3CCCCC3)n2C)cc1 | -10% | -0.9%
15 | C[C@]12c3[nH]c4ccc(Cl)cc4c3CCN1C(=O)[C@@H](CC(=O)NCc1cccc(C(F)(F)F)c1)C[C@@H]2C(=O)N1CCOCC1 | / | 2.5%
16 | CCN(C(=O)CSc1nccn1C)c1cccc2ccccc12 | / | -2.5%
17 | CCOC(=O)N1CCN(C(=O)c2oc3ccc(S(=O)(=O)N4CCCCC4)cc3c2C)CC1 | 9% | -0.4%
18 | O=C(c1cccc(S(=O)(=O)N2CCN(c3ccc(F)cc3)CC2)c1)N1CCCCCCC1 | / | -0.2%
19 | CN(C)CCn1c2c(c(SCC(=O)Nc3cccc4ccccc34)nc1=O)CCC2 | / | 0.8%
20 | COc1ccc(C2CC(c3cc(Br)ccc3F)n3nnnc3N2)cc1 (centres undefined) | -3% | 2.5%

No. | GLA inh pH 4.5 | Rango dissoc inh
11 | 4 | -10%
12 | -6 | 7%
13 | 1 | 2%
14 | 3 | 3%
15 | / | 13%
16 | / | 10%
17 | 1 | 0%
18 | / | 3%
19 | / | 22%
20 | -2 | -8%

More results follow:
No. | SMILES | miR-21 FLuc | Rango-impB inh
21 | CCNC(=O)CSc1nnc(-c2cccc(S(=O)(=O)N(CC)CC)c2)n1CCc1ccccc1 | -2% | 3.1%
22 | O=C(Nc1nsc(-c2ccccc2)n1)c1ccc(F)cc1 | -51% | 0.3%
23 | O=C(O)c1cccc(NC(=O)c2ccc(S(=O)(=O)c3ccccc3)cc2)c1 | -7% | -1.7%
24 | Cc1ccc(S(=O)(=O)N(C)CC(=O)O/N=C(\N)c2cccc([N+](=O)[O-])c2)cc1 | -1% | -0.8%
25 | CC(C)C1N(c2ccccc2)C(N)=C(C#N)C1(C#N)C#N (centres undefined) | -12% | -0.5%
26 | COc1ccc(NC(C)=O)cc1S(=O)(=O)NC(Cc1ccccc1)C(=O)NC(C)c1ccccn1 (centres undefined) | / | -4.0%
27 | O=C(CN1C(=O)c2ccccc2S1(=O)=O)Nc1ccccn1 | / | -3.9%
28 | O=C(c1ccc2c(c1)N(Cc1ccccc1F)C(=O)c1ccccc1S2)N1CCOCC1 | 1% | -4.7%
29 | O=[N+]([O-])c1ccccc1S(=O)(=O)Nc1ccc(-c2ccc(N3CCCC3)nn2)cc1 | / | -3.3%
30 | Cc1cccc(NC(=O)c2ccc3nc(N4CCOCC4)sc3c2)c1C | 0% | 0.9%

No. | GLA inh pH 4.5 | Rango dissoc inh
21 | 3 | 19%
22 | -3 | 10%
23 | 5 | 0%
24 | -4 | 6%
25 | 4 | -10%
26 | / | -10%
27 | / | ?
28 | 3 | 13%
29 | / | 2%
30 | / | 25%

The results go on.
No. | SMILES | miR-21 FLuc | Rango-impB inh
31 | COc1ccc(NS(=O)(=O)c2ccc3[nH]c(=O)[nH]c3c2)cc1 | -4% | -1.8%
32 | C=C(C)C1CC=C(CN2CCN(Cc3ccccc3)CC2)CC1 (centres undefined) | 13% | -1.7%
33 | CN(c1ccccc1)S(=O)(=O)c1cccc(C(=O)NC2CC(C)(C)NC(C)(C)C2)c1 | / | 0.4%
34 | CCC1(CC)NC(=O)N(CC(=O)OCC(=O)Nc2cc(C)ccc2C)C1=O | 0% | 3.5%
35 | Cc1cc(C)c2c(c1)-c1c(ssc1=S)C(C)(C)N2C(=O)CN1C(=O)c2ccccc2C1=O | 3% | 14%
36 | CCC1CCc2c(c3ccccc3[nH]c2=O)O1 (centres undefined) | -6% | 0.2%
37 | Cc1ccccc1/[N+]([O-])=C/c1ccncc1 | 4% | 2.6%
38 | COCCNc1nc(-c2cc(-c3ccccc3)on2)cc(C(C)C)n1 | 9% | 2.7%
39 | COc1ccc(CN2CCN(Cc3nc4ccccc4s3)CC2CCO)c(C)c1C (centres undefined) | 18% | -2.3%
40 | CCC(O)CC(C(=O)NNc1ccccc1)C(=O)NNc1ccccc1 (centres undefined) | 12% | 0.5%

No. | GLA inh pH 4.5 | Rango dissoc inh
31 | / | -4%
32 | / | -27%
33 | / | 47%
34 | 5 | 8%
35 | 18 | 3%
36 | 1 | 14%
37 | 11 | 4%
38 | -13 | -1%
39 | -10 | -10%
40 | -23 | -14%

Three records drawn at random from those above, as already listed:
No. | SMILES | miR-21 FLuc | Rango-impB inh
33 | CN(c1ccccc1)S(=O)(=O)c1cccc(C(=O)NC2CC(C)(C)NC(C)(C)C2)c1 | / | 0.4%
4 | COc1ccc(N2CCN(C(=O)COC(=O)c3oc4ccc(OC)cc4c3C)CC2)cc1 | / | 0.5%
14 | Cc1ccc(-c2cnc(NC(=O)CCC(=O)N3CCCCC3)n2C)cc1 | -10% | -0.9%

No. | GLA inh pH 4.5 | Rango dissoc inh
33 | / | 47%
4 | / | -13%
14 | 3 | 3%

Additional results:
No. | SMILES | miR-21 FLuc | Rango-impB inh
41 | C=CCn1c(=NC(=O)CN2C(=O)CCC2=O)sc2cccc(OC)c21 | -12% | -2.3%
42 | Cc1ccc(S(=O)(=O)N2CCN(C(C)C)CC2)cc1 | -1% | 0.3%
43 | COc1ccc(C(CNC(=O)c2cc(SC)ccc2Cl)N(C)C)cc1 (centres undefined) | -2% | -1.2%
44 | O=C(CCNS(=O)(=O)c1ccc(Cl)cc1)N1CCN(c2ccccn2)CC1 | 5% | -1.9%
45 | Cc1c(NC(=O)c2cnn3c2NC(c2ccco2)CC3C(F)(F)F)c(=O)n(-c2ccccc2)n1C (centres undefined) | -5% | ?
46 | Fc1ccc(NC2=NCCCCC2)cc1 | 1% | 1.9%
47 | CC(CC(=O)Nc1ccc2c(c1)OCO2)c1ccccc1 (centres undefined) | -35% | -1.9%
48 | COc1cccc(N(CC(=O)NCCSCc2ccc(C)cc2)S(C)(=O)=O)c1 | 10% | 0.3%
49 | CCCc1ccc(NC(=O)C2CCCN(c3cnccn3)C2)cc1 (centres undefined) | -18%&-9% | 2.2%
50 | O=c1nc2ccc(Cl)cn2c2ccc(S(=O)(=O)N3CCCCC3)cc12 | 5% | ?

No. | GLA inh pH 4.5 | Rango dissoc inh
41 | -2 | -18%
42 | 10 | 15%
43 | -9 | -13%
44 | / | 10%
45 | 1 | 23%
46 | -9 | 1%
47 | / | -1%
48 | / | -4%
49 | / | 3%
50 | / | ?

The list continues.
No. | SMILES | miR-21 FLuc | Rango-impB inh
51 | O=C(CSc1nnc(COc2ccc(Cl)cc2)o1)N1CCCCC1 | 3% | 4.3%
52 | CCCn1c(NCc2cccc(OC)c2O)nc2ccccc21 | -37% | -0.9%
53 | CC1(C)CC(=O)C2=C(C1)Nc1ccccc1NC2c1cccnc1 (centres undefined) | 1% | -0.2%
54 | COc1ccc(-n2ncc3c2CC(C)(C)CC3NC(=O)c2cn[nH]c2)cc1 (centres undefined) | -12% | 3.1%
55 | COc1ccc(CCN=C(N)NS(=O)(=O)c2ccc(F)cc2)cc1OC | -1% | ?
56 | O=C(OC1CCCCC1)c1ccc2c(c1)C1C=CCC1C(C(=O)O)N2 (centres undefined) | -11% | /
57 | O=C(/C=C/c1ccccc1)NC(=S)NNS(=O)(=O)c1ccccc1 | -3% | 0.4%
58 | CC1(c2ccc(OC(F)F)cc2)NC(=O)N(CC(=O)Nc2ccccc2)C1=O (centres undefined) | -28% | 0.1%
59 | COc1ccc(OC)c(C(c2c(C)[nH][nH]c2=O)c2c(C)[nH][nH]c2=O)c1 | -4% | 1.1%
60 | C[C@@H]1CN(C(=O)c2nc3ccc(Cl)cn3c2CN(C)CCc2cnn(C)c2)C[C@H](C)O1 | -2% | -2.4%

No. | GLA inh pH 4.5 | Rango dissoc inh
51 | / | -8%
52 | -6 | 14%
53 | 4 | -15%
54 | / | 7%
55 | / | ?
56 | -2 | /
57 | 6 | -3%
58 | / | 1%
59 | / | -17%
60 | / | 4%

(next part)
No. | SMILES | miR-21 FLuc | Rango-impB inh
61 | O=C(Nc1ccon1)c1cccc(S(=O)(=O)N2CCCCC2)c1 | 3% | -0.4%
62 | C=CCNc1nnc(Sc2ncccc2[N+](=O)[O-])s1 | 20% | -0.7%
63 | S=C(NC1CCCCCC1)NC1CCCC1 | -2% | -0.2%
64 | CCCCNc1ccc2nsnc2c1[N+](=O)[O-] | -27% | -2.7%
65 | CCCNC(=O)c1ccc(C2SCC(=O)N2CCc2ccccc2)cc1 (centres undefined) | -1% | -1.0%
66 | COc1ccc2nc(C)cc(SCC(=O)N3CCCCC3)c2c1 | -2% | -0.2%
67 | CCCCCCCN=CC1=C(O)CC(c2ccccc2)CC1=O (centres undefined) | -1% | -2.9%
68 | Cc1ccc2c(c1)NCC(C(=O)NC1CCCCC1)O2 (centres undefined) | -19% | 0.2%
69 | O=C(CNS(=O)(=O)c1ccc(F)c(Cl)c1)NCCc1ccccc1 | -7% | -4.1%
70 | COc1ccc(CCNC(=O)c2cc([N+](=O)[O-])cc([N+](=O)[O-])c2)cc1OC | 2% | -0.2%

No. | GLA inh pH 4.5 | Rango dissoc inh
61 | -12 | -8%
62 | 6 | -11%
63 | 2 | 21%
64 | -6 | 18%
65 | 4 | 3%
66 | 12 | -20%
67 | 2 | -2%
68 | -1 | 0%
69 | / | -9%
70 | / | -4%

Later entries:
No. | SMILES | miR-21 FLuc | Rango-impB inh
71 | CC(=O)N1CSCC1C(=O)O (centres undefined) | -1% | -0.1%
72 | CC1(C(=O)Nc2cccc(S(=O)(=O)N3CCOCC3)c2)Cc2ccccc2C(=O)O1 (centres undefined) | -1% | 2.6%
73 | CCN(CC(=O)NCc1ccc(F)cc1)CC(=O)Nc1ccc(S(=O)(=O)N2CCCC2)cc1 | 7% | -1.2%
74 | O=c1c(Cc2ccc(Cl)cc2Cl)c(O)ccn1Cc1ccncc1 | -4% | -0.4%
75 | Cc1cc(C)n(CC(=O)N/N=C/c2cc(Br)cc([N+](=O)[O-])c2O)n1 | 3% | 0.6%

No. | GLA inh pH 4.5 | Rango dissoc inh
71 | 1 | 6%
72 | -26 | 13%
73 | 2 | 1%
74 | -15 | 2%
75 | -3 | -15%

The list is partial; count on the stated rates, not on these rows.
